# TRPV1 potentiator: HTS Assay for Compounds that Act as Potentiators of the Vanilloid Receptor 1 | Transient receptor potential cation channel subfamily V member 1 (Homo sapiens), Q8NER1 | TRPV1-expressing cells, Fluo-8 calcium influx, capsaicin EC20 potentiation; host cell line not named in the record; control for the full effect not named in the record | potentiation, % at 8.33 µM | 320,000 compounds, 0.02% hits; active means potentiation above 80%; inconclusive means 30% to 80%; inactive means below 30%; also: 0% is about no effect
#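 Fluo-8 calcium influx in TRPV1-expressing cells, kinetic read (ex 480/em 520 nm). Compound added and read 3 min for agonist activity, followed by capsaicin at EC20 final and 2 min further read for enhancement.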
# TRPML1 agonist: qHTS for Agonists of the Human Mucolipin Transient Receptor Potential 1 (TRPML1); Mucolipin-1 (Homo sapiens), Q9GZU1; TRPML1-expressing cells, Ca2+ dye fluorescence, FDSS; host cell line not named in the record; reference of the full effect not given here; activation, % (no concentration beside the values); 410,000 compounds, 0.12% hits; AID 624414, 2012; in the data active = activation above about 50%; inconclusive = about 30% to 50%; inactive = below about 30%; also: 0% is about no effect; the text of the record puts the active cut at 80%
# Target sequence (Q9GZU1 whole entry, looked up): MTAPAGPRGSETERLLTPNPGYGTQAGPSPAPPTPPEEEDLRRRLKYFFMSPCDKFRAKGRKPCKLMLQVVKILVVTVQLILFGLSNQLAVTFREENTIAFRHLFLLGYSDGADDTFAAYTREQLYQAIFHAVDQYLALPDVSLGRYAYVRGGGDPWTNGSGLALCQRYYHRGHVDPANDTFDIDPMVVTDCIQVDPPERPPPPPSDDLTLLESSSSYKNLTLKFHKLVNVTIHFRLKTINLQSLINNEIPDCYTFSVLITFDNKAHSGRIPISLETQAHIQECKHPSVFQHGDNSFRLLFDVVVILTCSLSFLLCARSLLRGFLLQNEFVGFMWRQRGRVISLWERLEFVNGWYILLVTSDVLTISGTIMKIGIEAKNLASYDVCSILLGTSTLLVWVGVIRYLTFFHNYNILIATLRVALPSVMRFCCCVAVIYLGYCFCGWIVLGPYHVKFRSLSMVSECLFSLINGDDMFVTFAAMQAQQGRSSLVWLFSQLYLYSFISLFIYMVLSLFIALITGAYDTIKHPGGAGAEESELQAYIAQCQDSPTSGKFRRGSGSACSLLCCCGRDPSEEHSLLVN
#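 Calcium fluorescence on an FDSS kinetic reader gave the read-out. Tet-induced TRPML1-DL cells were plated overnight, dye-loaded (Ca8 with quencher, 45-90 min, room temperature, dark), then read 110 s after compound addition, and again 110 s after 4uM final 54-4 (EC80).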
# Sfp inh: qHTS Assay for Inhibitors of Bacillus subtilis Sfp phosphopantetheinyl transferase (PPTase). 310,000 compounds, 3.5% hits. Potency, µM, for the others: max response, negative = inhibition, usual class: inhibitors. Biochemical Sfp PPTase activity, qHTS. AID 1490, 2009. 4'-phosphopantetheinyl transferase ffp (Bacillus subtilis), Q9F4F7; active = well fitted inhibition curve with a large enough effect; inconclusive = small, poorly fitted or top-dose-only effect, or another doubt; inactive = no such curve, though single readings can be large or run the other way;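 also: the enzyme is Sfp with the accession as filed and its product quenches rhodamine fluorescence; potency is read from the fitted curve at half-maximal effect; 0% = enzyme reaction without inhibitor and -100% = no enzyme wells; top concentration of the series not given in the record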
#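 Compounds were incubated with enzyme (final 15 nM) for 15 min at room temperature before substrate addition started the reaction. Fluorescence at 525 nm excitation, 598 nm emission was recorded immediately and after 30 minutes.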
# TRPML1 inh: qHTS for Inhibitors of the Human Mucolipin Transient Receptor Potential 1 (TRPML1); Mucolipin-1 (Homo sapiens), Q9GZU1; TRPML1-inducible cells, Ca2+ dye fluorescence, FDSS; stronger effect = lower value; inhibition of EC80 agonist-evoked calcium signal; activity change, negative = inhibition, % (test concentration not listed); 390,000 compounds, 0.02% hits; in the data active means activity change below about -50%; inconclusive means about -30% to -50%; inactive means above about -30%;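 also: stimulus is agonist 54-4 at its EC80 concentration; % is scaled to controls: 0 for no effect and ±100 for the full control effect; compound concentration not given in the record; the text of the record puts the active cut at -80%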
#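 Tet-induced TRPML1-DL cells loaded with Ca8 no-wash calcium dye were read kinetically on FDSS. Compound addition was followed by EC80 agonist 54-4 (4 uM final); inhibition was read over 110 s.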
# PINK1 expr mod: A Quantitative High throughput Screen to Identify Chemical Modulators of PINK1 Expression; 410,000 compounds, 0.2% hits; AID 624263, 2012; PINK1 immunofluorescence, high-content cytometry, 24 h; Potency, µM (doses to about 76.6 µM), for inactives: at the highest dose activation (PINK1 increase), most hits filed as activators; active = well fitted activation curve with a large enough effect; inconclusive = small, poorly fitted or top-dose-only effect; inactive = flat fitted curve, though single readings scatter; cell line not stated here;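 also: potency is read from the fitted curve at half-maximal effect; % of control where 0% means no effect; nearly all actives have a fitted effect of over 65% in size; a mitochondrial uncoupler was the plate control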
#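 Decision-based qHTS: stable cells, 24 h exposure to five compound concentrations, CCCP as control. Fixed cells stained for PINK1 plus nuclear, mitochondrial and cell markers, cytometer read.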
# Menin MLL FP FL: qHTS Assay for Inhibitors Targeting the Menin-MLL Interaction in MLL Related Leukemias: Competition With Fluorescein Labeled MLL-derived Peptide | Fluorescence polarization, fluorescein-MLL peptide displacement from menin | FP activity change, % at 61.4 µM | 290,000 tested, under 10 active | AID 1766, 2009; inconclusive = falling polarisation curve, or a change in total fluorescence; inactive = total fluorescence flat and polarisation flat or rising; no compound was filed as active; the % refers to the polarisation; negative = inhibition;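 also: % of control where 0% means no effect; inhibitors lower the polarisation; unlabelled MLL peptide was the positive control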
# ClpP mod: qHTS Assay for Activators of ClpP; Potency, µM (series often up to 57.5 µM), for the others: at the highest dose activity change, negative = active; ATP-dependent Clp protease proteolytic subunit (Bacillus subtilis (strain 168)), P80244; purified B. subtilis ClpP, FRET peptide cleavage, 20 min; 340,000 compounds, 1.9% hits; active = well fitted falling curve with a large enough effect; inconclusive = small, poorly fitted or top-dose-only effect; inactive = no such curve, though single readings can be large or run the other way; also: potency is read from the fitted curve at half-maximal effect; the source files actives as falling curves though it sought activators and does not explain the sign; nearly all actives have a fitted effect of over 65% in size; many hits overshoot -100%
# Target sequence (P80244 whole entry, looked up): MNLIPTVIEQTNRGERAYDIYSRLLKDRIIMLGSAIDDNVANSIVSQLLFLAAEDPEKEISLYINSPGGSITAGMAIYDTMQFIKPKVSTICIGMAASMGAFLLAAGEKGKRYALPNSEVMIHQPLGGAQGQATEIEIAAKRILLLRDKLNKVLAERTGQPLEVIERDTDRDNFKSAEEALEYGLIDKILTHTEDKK
#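 Purified B. subtilis ClpP, 10 microg/mL final in Tris/HCl pH8 with KCl, BSA, glycerol and Tween-20, cleaved an Abz/nitrotyrosine-quenched decapeptide. Fluorescence (ex 320, em 430) was read at 0 and 20 min at room temperature. Delta was normalized to 5.8 microM ADEP and DMSO/no-enzyme controls.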
# Starred values were filed as active, the others as inactive; ? = inconclusive; . = not tested or not shown; & = joins results of further samples; [ ] = another dose, or the depositor's remark.
SMILES,TRPV1 potentiator,TRPML1 agonist,Sfp inh,TRPML1 inh,PINK1 expr mod,Menin MLL FP FL,ClpP mod
Ic1ccc(N2CCN(Cc3c[nH]c4ncccc34)CC2)cc1,-9.2,0.6&20.9,4.0%,9.2,6.4%&5.2%,2.7,-5.9%
CCOc1cc(/C=C\[N+](=O)[O-])ccc1OCC(=O)N1CCOCC1,-2.6,-0.3,39.8µM*,-6.0,-0.9%,0.6,.
C/C(CC(=O)Nc1ccc(C)c(Cl)c1)=N\NC(=O)Cc1ccccc1,19.9,1.8,9.4%,-1.2,-1.2%,3.4,2.8%
Cc1ccc(C)c(NC(=O)c2cc(-c3cc(C)ccc3O)n[nH]2)c1,5.2,4.1,1.4%,-8.8,9.9%,-1.2,16.5%
CCC/C=N/NC(=O)CNC(=O)c1ccccc1Cl,2.5,-0.6,18.9%,-1.9,0.3%,-2.6,.
CSCCC(NC(=O)c1cccc(S(=O)(=O)N2CCOCC2)c1)C(=O)Nc1cccc(C)c1 (stereo not drawn),?,1.4,-17.1%,21.7,1.4%,-1.3,0.6%
CC(C)(C)NCC(O)COc1ccccc1C(C)(C)C (stereo not drawn),1.0,0.4,1.6%,1.2,.,4.1,1.3%
NCCc1nnc(SCC(=O)Nc2cccc(Cl)c2)o1,-15.9,1.8,8.8%,-7.9,0.7%,.,-2.1%
CCOc1cc(-c2nccc3cc(OC)c(OC)cc23)cc(OCC)c1OCC,-11.9,2.0,0.6%&26.6%,16.9,2.9%,-2.3&5.5,.
CN(C)c1ncc2nc(-c3ccccc3)c(=O)n(C)c2n1,.,.,-4.8%,.,-0.5%,-12.8,.
CCCCCn1c(CCCNC(=O)CC)nc2ccccc21,-11.1,-0.3,16.0%,-3.6,3.2%,2.8,-0.8%
Cc1ccn2c(=O)c(C(=O)NCCc3ccc(S(N)(=O)=O)cc3)c(O)nc2c1,.,-0.1,.,11.0,2.6%,.,4.3%
Cc1ccccc1-c1nc(CN2CCC(C(=O)NCc3ccco3)CC2)c(C)o1,19.8,0.7,7.7%,9.8,-1.2%,3.5,-1.4%
O=C(CN1C(=O)S/C(=C\c2ccccc2Cl)C1=O)NCCCn1ccnc1,-6.8,0.8,-4.6%,-2.2,1.9%,.,.
CCCn1c(S(=O)(=O)O)nc2ccccc21,-10.0,-0.7,-13.2%,23.1,-2.8%,-0.1,.
OC[C@H]1O[C@@](CO)(O[C@H]2O[C@H](CO)[C@@H](O)[C@H](O)[C@H]2O)[C@@H](O[C@H]2O[C@H](CO)[C@@H](O)[C@H](O)[C@H]2O)[C@@H]1O,.,1.0,.,14.1,0.9%,.,0.2%
O=C(Nc1ccc(F)c(Cl)c1)c1cccnc1,13.1,0.4,15.5%,-7.7,4.3%,3.4,.
COc1cc(Cl)c(C)cc1NC(=O)COC(=O)C1=NN(c2ccccc2)C(=O)CC1,.,0.0,.,-5.9,1.8%,.,-2.4%
COc1cccc(-c2nc(CS(=O)(=O)CC(=O)NCCCN3CC(C)CC(C)C3)c(C)o2)c1 (stereo not drawn),14.0,0.1,14.7%,23.1,-0.3%,-1.2,-29.5%
COCCn1nnnc1C(CC(C)C)N1CCN(c2ccccc2)CC1 (stereo not drawn),12.7,-0.1,3.8%,-5.4,1.3%,-0.8,-0.4%
O=C(CCS(=O)(=O)c1cc(Br)cc2c1N(C(=O)C1CC1)CC2)N1CCN(c2cccc(Cl)c2)CC1,.,-0.4,.,-21.1,3.3%,.,-0.6%
CCN1CCCC1CN(Cc1cc2c(C)cc(C)cc2[nH]c1=O)C(=O)NC1CCCCC1 (stereo not drawn),13.1,-0.8,4.5%,16.9,5.6%,6.5,-21.7%
CC(C)c1ccc(OCC(=O)NC(=S)Nc2ccc3c4c(cccc24)CC3)cc1,9.1,1.9,12.4%,-3.6,-6.1%[38.3 µM],2.6,2.8%
Cc1cc(CSc2ccccc2)ccc1NC(=O)c1ccc(Cl)c([N+](=O)[O-])c1,20.2,1.5,-2.4%,31.8,5.7%,1.4,8.2%
Nc1nnc(-c2cccc([N+](=O)[O-])c2)o1,.,-0.2,6.4%,4.8,-0.8%,3.8,.
CN1CCN(c2ccc([N+](=O)[O-])c(-n3nc(-c4ccccc4)c4ccccc4c3=O)c2)CC1,0.5,-0.1,-2.3%,-6.5,-1.7%,5.1,1.7%
COc1ccc(S(=O)(=O)CC(=O)c2cc3cc(Br)ccc3oc2=O)cc1,22.0,6.0,-22.7%,-5.4,2.9%,.,0.2%
CC(C)C[C@H](N)C(=O)N1CCC(C(=O)N[C@H](C(=O)NCc2ccc(F)cc2)C(C)C)CC1,5.9,.,-3.4%,.,-0.1%,1.0,1.6%
COc1ccccc1N1CCN(C(=O)CN(c2ccccc2OC)S(=O)(=O)c2ccccc2)CC1,-2.3,-1.0,-8.2%,-2.4,-2.3%,1.2,-1.0%
O=C(CN1C(=O)/C(=C\c2cccc(Br)c2)Oc2ccccc21)NCC1CCCO1 (stereo not drawn),18.6,-1.0,-1.9%,42.9,7.9%,.,-9.1%
O=C(O)C1CC=CCC1C(=O)N1CCCC1 (stereo not drawn),-5.9,-0.3,19.8%,4.5,-0.8%,2.2,0.9%
O=C(Nc1ccccc1)N1CCC2(CC1)CCN(C(=O)c1ccncc1)CC2,.,.,15.5%,.,1.6%,1.4,.
O=C(NN=C1C2CC3CC1CC(Cl)(C3)C2)c1ccccn1,13.1,0.0,7.94µM*,0.2,0.3%,1.8,0.5%
Cc1c(OCC(=O)N2CCC[C@@H]2C(=O)O)ccc2c3c(c(=O)oc12)CCC3,-8.2,.,0.4%,.,-0.4%,-5.6,4.5%
CC(=O)NC(=C(Cl)Cl)S(=O)(=O)c1ccccc1,0.1,0.0,1.3%,3.3,8.0%,2.0,-1.9%
CC(C)Cc1nnc(NC(=O)CCC(=O)N2CCN(c3ccc(Cl)cc3)CC2)s1,1.9,-1.0,17.7%,-5.6,-0.6%,2.6,-0.2%
O=C(COC(=O)c1ccccc1Br)NCc1cccs1,.,0.1,.,-5.6,1.0%,.,1.6%
O=C(/C=C/c1ccc(F)cc1)Nc1nc2n(n1)C(c1ccc(Cl)cc1)C=C(c1ccccc1)N2 (stereo not drawn),.,0.4,.,10.0,1.2%,.,-3.0%
Cc1nnsc1SCCNC(=O)Nc1ccc(Cl)cc1,-11.6,0.5,15.4%,-0.9,3.4%,-1.0,0.7%
CSc1ccc(/C=N/N2CCN(Cc3ccc(C)cc3C)CC2)cc1,-2.9,1.2,-3.9%,8.0,4.3%,-8.6,-0.7%
CC(=O)Nc1ccc(SC[C@H](CC(C)C)N2CCN(CC(C)C)CCC2=O)cc1,-41.9,1.2,-5.1%,5.3,-1.1%,2.9,-3.1%
COC(=O)c1c(C)oc2ccc(N(C(=O)c3ccncc3)S(=O)(=O)c3cc(C)ccc3C)cc12,.,4.1,.,55.3,0.8%,.,-0.1%
CCOC(=O)C1(C)CCCN(C(=O)c2ccc3snnc3c2)C1 (stereo not drawn),.,-0.7,.,.,0.3%,.,-3.0%
N#C/C(=C\c1ccc(F)cc1)c1n[nH]c(Cn2cncn2)n1,16.3,-1.1,5.1%,13.1,-0.6%,2.9,-2.7%
C#CC(C)(O)C1CC(CC(=O)O)C1(C)C (stereo not drawn),.,-0.5,.,3.4,1.6%,.,.
COc1ccc(C)cc1NC(=O)c1cnc2scc(C)n2c1=O,3.3,0.0,19.8%,-4.8,3.7%,-0.8,4.7%
CC(=O)c1ccccc1OCCCCN1CCCCC1,4.8,-0.1,1.2%,-1.9,-0.9%,0.1,-28.6%
Cc1ccc(S(=O)(=O)Nc2ccc(-n3c(C)nc4ccccc4c3=O)cc2)cc1,6.4,0.0,.,1.3,2.5%,.,1.4%

# One compound at a time (already shown).
# C#CC(C)(O)C1CC(CC(=O)O)C1(C)C (stereo not drawn) reads TRPV1 potentiator = .; TRPML1 agonist = -0.5; Sfp inh = .; TRPML1 inh = 3.4; PINK1 expr mod = 1.6%; Menin MLL FP FL = .; ClpP mod = .
# CCOC(=O)C1(C)CCCN(C(=O)c2ccc3snnc3c2)C1 (stereo not drawn) reads TRPV1 potentiator = .; TRPML1 agonist = -0.7; Sfp inh = .; TRPML1 inh = .; PINK1 expr mod = 0.3%; Menin MLL FP FL = .; ClpP mod = -3.0%

# The results go on.
SMILES,TRPV1 potentiator,TRPML1 agonist,Sfp inh,TRPML1 inh,PINK1 expr mod,Menin MLL FP FL,ClpP mod
CC(C)C(=O)NC(C)C(c1cccs1)N1CCOCC1 (stereo not drawn),-11.1,3.0,-7.9%,30.6,9.2%[38.3 µM],4.1,-2.1%
COC(=O)c1ccccc1NC(=O)/C=C/c1ccco1,4.3,2.1,50.1µM*,11.0,0.0%,12.1,-3.3%
CC(C)NC(=O)c1nn(-c2ccccc2F)nc1CO,.,0.8,.,24.9,-0.8%,.,-10.9%
CC(C)Oc1ccc(NC(=O)c2cc3ccccc3o2)cc1,.,0.7,.,-4.5,1.0%,.,-1.5%
COc1cc(CNCCc2ccc(S(N)(=O)=O)cc2)ccc1OCc1ccc(Cl)cc1,0.0,6.2,-97.1%,37.9,5.4%[38.3 µM],-1.3,-0.3%
COc1ccc(C(=O)/C=C/N2CCCCC2)cc1OC,3.4,1.1,5.0%,14.0,.,6.0,-4.6%
CC(NC(=O)C(NS(=O)(=O)c1cccs1)C(C)C)c1ccc(S(N)(=O)=O)cc1 (stereo not drawn),5.6,-0.9,.,5.2,2.7%,.,-2.4%
O=C(CSc1ccccc1)N(c1ccc(Br)cc1)c1nccs1,-9.7,2.7,-1.3%,-3.6,1.2%,3.2,0.0%
CC(NC(=O)c1ccc(Cl)cc1)c1nnc(SCc2ccc([N+](=O)[O-])cc2)n1C (stereo not drawn),15.4,0.1,1.2%,-7.8,2.4%[38.3 µM],3.8,0.6%
CS(=O)(=O)c1ccc(C(=O)Nc2cc(S(C)(=O)=O)ccc2Cl)cc1,-0.5,0.5,0.1%,15.2,1.7%,-0.6,-1.4%

# Screens (PubChem)
